HNF4A DNA FP – change in binding of human HNF4 alpha to DNA; AID 1224865; 360,000 compounds, 0.3% hits; activity change, % at 10 µM; HNF4a-FITC DNA binding, fluorescence polarization, 1 h; in the data active = activity change above about 30%, passing the limit was not always enough;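 note: controls were the assay level and a saturating level of protein; the project sought stronger binding though the title names inhibitors; some compounds called inactive have numbers as strong as hits; positive values seem to mean higher polarization but the record does not say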
Target sequence (P41235 whole entry, looked up): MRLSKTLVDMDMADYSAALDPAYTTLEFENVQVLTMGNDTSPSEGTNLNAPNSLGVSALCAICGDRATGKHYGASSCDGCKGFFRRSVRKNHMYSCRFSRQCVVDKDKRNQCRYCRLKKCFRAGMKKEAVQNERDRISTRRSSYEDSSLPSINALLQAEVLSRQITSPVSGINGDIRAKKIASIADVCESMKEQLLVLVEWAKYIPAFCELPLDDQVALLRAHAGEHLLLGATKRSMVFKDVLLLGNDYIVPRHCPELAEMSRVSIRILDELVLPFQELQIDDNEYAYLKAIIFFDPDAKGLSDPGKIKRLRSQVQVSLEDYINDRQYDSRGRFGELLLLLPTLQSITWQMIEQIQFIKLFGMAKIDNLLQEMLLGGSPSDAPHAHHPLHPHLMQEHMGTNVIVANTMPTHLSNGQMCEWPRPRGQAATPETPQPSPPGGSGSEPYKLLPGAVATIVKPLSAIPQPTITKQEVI
E coli growth – blocks Escherichia coli growth | OD600, 23 h; stronger effect = lower value | OD600 absorbance (no concentration beside the values) | 330,000 compounds, 0.21% hits | AID 1053175;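 active = OD600 absorbance below the run mean of sample wells minus 3.6 SD, in any replicate, cut at about 0.56 in these data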;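 note: stock transfer was 300 nL into about 60 µL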
UCH37 DUB inh – inhibitors of human deubiquitinating enzyme UCH37; purified proteasome/UCH37, Ub-AMC cleavage fluorescence; inhibition, % (test concentration not listed); 330,000 compounds, 0.33% hits;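 active = mean of two replicates above 20%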;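 note: 0% = compound-free wells with enzyme and 100% = wells lacking proteasome; stock transfer was 100 nL into about 20 µL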
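Material: human UCH37 enzyme supplied as purified proteasome complex. Measure: % inhibition of Ub-AMC cleavage fluorescence. Medium: pH 7.4 Tris-HCl (50 mM) with ovalbumin, ATP-MgCl2, DTT. Times: 30 min preincubation with enzyme, 25 min cleavage at room temperature. Detection: AMC fluorescence intensity at 355/460 nm.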
ALR H2O2 inh – blocks human ALR sulfhydryl oxidase activity. P55789. purified ALR, DTT oxidation, H2O2 HRP-luminol luminescence. inhibition, % (test concentration not listed). 290,000 compounds, 3.8% hits. AID 485317;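 active = mean and each replicate at 75% or more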;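 note: stock transfer was 7.5 nL into about 7.5 µL; 0% = neutral wells and 100% = wells with inactivated enzyme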
Target sequence (P55789 whole entry, looked up): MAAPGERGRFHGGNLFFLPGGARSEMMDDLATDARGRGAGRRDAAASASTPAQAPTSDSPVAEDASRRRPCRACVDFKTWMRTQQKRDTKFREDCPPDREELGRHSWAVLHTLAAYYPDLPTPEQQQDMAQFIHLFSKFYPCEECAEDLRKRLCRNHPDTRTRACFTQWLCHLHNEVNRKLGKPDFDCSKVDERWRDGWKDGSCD
LANA-H2A inh – blocks KSHV LANA binding to histone H2A/H2B; Q9QR71; cell-free LANA-H2A/H2B peptide, fluorescence polarization; inhibition, % (test concentration not listed); 320,000 compounds, 0.6% hits; AID 2629; in the data active = inhibition mostly above about 10%, no sharp cut-off; inactive = mostly below about 6.7%;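 note: stock transfer was 7.5 nL into about 10 µL; 0% = median of vehicle wells and 100% = median of positive control wells; one replicate is shown; the record names a cut of 25% in any replicate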
FGF22 binding – FGF22 (human) thermal shift binding; Q9HCT0; recombinant FGF22 thermal shift, SYPRO orange fluorescence; percent of sucrose octasulfate shift, DMSO zero; calls only at 9.99 µM; 340,000 compounds, 1.5% hits; AID 651658;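 active = melting point raised past a set limit in the mean and every replicate; three in four hits are not shown here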
Beta2AR agonist – activates human beta-2 adrenergic receptor causing internalization; P07550; Am2.2-beta2AR cells, FAP receptor internalization, flow cytometry; reference of the scale not given here; response, % (concentration not given with the values); 340,000 compounds, 0.43% hits;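 active = response above a set limit, near 3 SD of response in nonfluorescent compounds, cut at about 42% in these data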;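 note: stock transfer was 100 nL into about 11 µL; a reference agonist was the positive control; negative values mostly stem from fluorescent compounds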
Target sequence (P07550 whole entry, looked up): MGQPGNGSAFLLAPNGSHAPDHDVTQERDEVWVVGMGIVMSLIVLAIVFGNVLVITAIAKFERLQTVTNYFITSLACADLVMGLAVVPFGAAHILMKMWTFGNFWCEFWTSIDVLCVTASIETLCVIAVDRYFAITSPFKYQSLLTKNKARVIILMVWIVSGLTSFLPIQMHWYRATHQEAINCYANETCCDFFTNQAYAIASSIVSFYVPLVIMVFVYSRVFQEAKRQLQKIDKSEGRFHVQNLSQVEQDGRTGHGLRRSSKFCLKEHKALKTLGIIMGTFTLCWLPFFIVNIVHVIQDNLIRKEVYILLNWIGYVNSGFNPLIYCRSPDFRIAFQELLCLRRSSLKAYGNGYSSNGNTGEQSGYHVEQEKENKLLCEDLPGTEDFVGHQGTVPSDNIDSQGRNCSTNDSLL
* hit, by the source's call; i = inactive; · = not tested or not shown.

HNF4A DNA FP,E coli growth,UCH37 DUB inh,ALR H2O2 inh,LANA-H2A inh,FGF22 binding,Beta2AR agonist,mol
4.3,0.77,6.5,-3,1.3,i,0,CCn1c(=O)cc(OCC(=O)Nc2nc(C)cs2)c2ccccc21
-0.9,0.72,6.1,3,-2.9,i,9,CC(=O)Nc1ccc(NC(=O)C(C)OC(=O)CNS(=O)(=O)c2ccc(Br)cc2Cl)cc1 (stereo unspecified)
2.2,0.66,8.1,-10,-0.5,i,11,O=C(CCN1C(=O)/C(=C/c2cccc(Br)c2)SC1=S)NNC(=O)c1cccnc1
4.3,0.7,-9.8,-12,2.6,i,-2,O=C(NCCCNC(=O)c1cncc(O)c1)c1cncc(O)c1
-0.1,0.65,2.8,21,1.5,i,1,O=C(CN1CCOCC1)NN1CC(=O)N(c2ccc(Cl)cc2)CC1=O
1.5,·,·,-8,2.6,·,20,CCN(CC)c1ccc(/C=N/n2c(=S)[nH]nc(C)c2=O)cc1
-2.9,0.66,3.8,-6,-5.0,i,-6,NC(=O)C1CCN(C(=O)c2ccc3ccccc3c2)CC1
-1.9,0.74,2.4,·,2.2,·,7,O=S(=O)(Cc1cc(Sc2ccccc2)nc(-c2ccccc2)n1)c1ccccc1
1.4,0.7,3.6,-12,0.0,·,-2,CCC(C)(C)NC(=O)C(c1cccn1C)N(C(=O)Cn1nnc2ccccc21)c1ccc(OC)cc1OC (stereo unspecified)
-0.3,0.71,4.5,9,-0.4,i,5,O=C1OCCC1Sc1nc2ccccc2c(=O)n1Cc1ccccc1 (stereo unspecified)
-4.7,0.64,-2.5,·,0.0,i,-5,CN(C)C(=O)c1cc(C(=O)c2c(F)cccc2F)c[nH]1
1.0,0.76,3.1,-6,-6.7,·,5,CN(C)C(=O)C(=O)c1cccn1-c1ccccc1C#N
2.8,0.64,1.4,·,·,·,13,COc1ccc(CNc2nc(-c3cccnc3)nn2C(=O)C(C)C)cc1
1.8,0.66,-0.4,·,·,i,-5,CN(C)c1ccc(CNn2cnnc2SCC(=O)NC(C)(C)C)cc1
-3.3,0.67,1.0,-2,-0.7,i,6,Cc1cc(C)n(CC(O)COc2ccc(C(C)(C)C)cc2)n1 (stereo unspecified)
-1.2,·,·,3,1.5,i,2,O=C(CN1CCOCC1)N/N=C/c1ccccc1
0.1,0.68,6.1,·,·,i,-4,CCOC(=O)C1CCN(c2c(NCc3ccc(C(=O)NC4CCCC4)cc3)c(=O)c2=O)CC1
-0.7,0.64,4.1,-2,2.4,i,3,C[C@@H]1C(=O)O[C@H]2C[C@@]34[C@H]5C[C@@H](C(C)(C)C)[C@]36[C@@H](OC(=O)[C@@H]6O)O[C@@]4(C(=O)O5)[C@]21O
3.4,·,0.1,-6,11,i,38,FC(F)(F)c1cc(CCN2CCNC[C@@H]2CC2CCCCC2)cc(C(F)(F)F)c1
1.8,0.68,1.8,-5,-1.3,i,-8,COc1ccc(OCC(=O)NNC(=O)c2cc3ccccc3o2)cc1
3.7,0.73,0.7,-18,0.2,i,-3,Cc1ccc(C)c(S(=O)(=O)N2CCN(C(=O)CSc3ccccc3)CC2)c1
1.3,0.65,-4.9,6,-1.6,·,-267,CC(C)CC(NC(=O)C(COCc1ccccc1)NC(=O)OC(C)(C)C)C(=O)NN (stereo unspecified)
0.4,0.65,1.4,-4,-11,·,6,COc1ccc(CCNC(=O)C2CCN(S(=O)(=O)c3ccc(Cl)cc3)CC2)cc1OC
3.2,0.73,1.2,-2,10,·,9,COc1ccc(OC)c(-c2csc(N(Cc3ccco3)C(=O)c3cccs3)n2)c1
2.5,0.65,1.2,-1,3.4,i,0,Cc1ccc(S(=O)(=O)N2CCOCC2)cc1NC(=O)CSc1nnc(C2CC2)n1C1CC1
11,0.73,7.7,85*,2.0,·,-34,Nc1cc2c([N+](=O)[O-])cccc2o1
2.7,0.66,-41,-22,3.9,i,-7,Cc1c(C)c2ccc(O[C@@H]3O[C@H](CO)[C@H](O)[C@H](O)[C@H]3O)c(C)c2oc1=O
1.3,0.73,1.7,-2,-4.0,·,-5,COc1cccc(CN(CC(=O)NC2CCCC2)C(=O)CCC(=O)Nc2cc(C)on2)c1
-2.0,0.7,1.3,2,-7.3,i,-1,COc1c(C)cc(C(=O)C2CCCN(C(=O)Cn3nc(C)nc3C)C2)cc1C (stereo unspecified)
1.1,0.71,0.0,-4,3.9,i,-2,COc1ccccc1C(=O)NCCC(=O)N1CCCC(C(F)(F)F)C1 (stereo unspecified)

A stretch from further up:
HNF4A DNA FP,E coli growth,UCH37 DUB inh,ALR H2O2 inh,LANA-H2A inh,FGF22 binding,Beta2AR agonist,mol
1.5,·,·,-8,2.6,·,20,CCN(CC)c1ccc(/C=N/n2c(=S)[nH]nc(C)c2=O)cc1
-2.9,0.66,3.8,-6,-5.0,i,-6,NC(=O)C1CCN(C(=O)c2ccc3ccccc3c2)CC1
-1.9,0.74,2.4,·,2.2,·,7,O=S(=O)(Cc1cc(Sc2ccccc2)nc(-c2ccccc2)n1)c1ccccc1
1.4,0.7,3.6,-12,0.0,·,-2,CCC(C)(C)NC(=O)C(c1cccn1C)N(C(=O)Cn1nnc2ccccc21)c1ccc(OC)cc1OC (stereo unspecified)
-0.3,0.71,4.5,9,-0.4,i,5,O=C1OCCC1Sc1nc2ccccc2c(=O)n1Cc1ccccc1 (stereo unspecified)
-4.7,0.64,-2.5,·,0.0,i,-5,CN(C)C(=O)c1cc(C(=O)c2c(F)cccc2F)c[nH]1

Carrying on:
HNF4A DNA FP,E coli growth,UCH37 DUB inh,ALR H2O2 inh,LANA-H2A inh,FGF22 binding,Beta2AR agonist,mol
0.6,0.7,-1.2,-5,0.8,i,1,O=C(NCC1CCCO1)C1CCN(S(=O)(=O)c2ccccc2)CC1 (stereo unspecified)
-4.5,0.74,-1.5,-5,0.0,·,-3,CN(C)CCCNC(=O)c1ccc(Cl)c(S(=O)(=O)N(C)c2ccccc2)c1
1.7,·,·,0,1.1,i,-1,O=C(OCc1nnc(-c2ccccc2)o1)c1cccc(-n2cnnn2)c1
2.2,0.66,-0.9,-1,6.0,i,-13,CCc1ccc(N(C(=O)CNC(=O)c2ccco2)C(C(=O)NCC2CCCO2)c2ccccc2)cc1 (stereo unspecified)
1.9,0.66,2.6,66,3.4,i,-5,O=C(COc1ccccc1)NCC(c1ccco1)N1CCN(c2ccccc2)CC1 (stereo unspecified)
1.1,0.75,3.8,-2,-3.8,·,0,COc1cc(CC(=O)OCC(=O)Nc2ccc(S(=O)(=O)N3CCCC3)cc2)cc(OC)c1OC
1.6,0.69,2.4,-16,1.1,·,0,COc1cc(C=O)ccc1OCCOCCOc1ccc(Cl)cc1
1.0,0.68,-78,-8,3.6,i,10,COc1ccc(-c2ccc3oc(-c4ccc(OC)cc4)c(C#CCO)c3c2)cc1
4.6,0.66,0.3,-3,3.6,i,9,COC(=O)c1ccc(C(=O)N(Cc2ccccc2)c2ccccc2)cc1
1.4,·,·,·,-0.7,i,3,CCCCC(Br)C(=O)Nc1ccc(S(=O)(=O)Nc2cc(C)nc(C)n2)cc1 (stereo unspecified)
-3.4,0.62,5.2,-13,-1.2,i,-3,C=CCc1cc(Cl)ccc1OCCCn1ccnc1
-1.2,0.7,3.6,5,-3.3,i,-4,CS(=O)(=O)N(CC(=O)N1CCOCC1)c1ccccc1Br
-2.4,0.71,-0.6,·,-0.6,i,-1,CC(C)CNC(=O)CCCSc1nc2ccccc2[nH]1
-4.2,0.68,1.2,-25,1.1,i,0,O=C(NCc1ccccc1)C1CCC(=O)N(CCCN2CCCC2=O)C1 (stereo unspecified)
-2.4,0.67,5.5,-1,-0.6,i,-7,O=C(O)c1c(C(=O)N2N=C3/C(=C/c4ccccc4)CCCC3C2c2ccccc2)cccc1[N+](=O)[O-] (stereo unspecified)
1.4,0.68,0.7,·,0.9,i,2,COc1ccc(/C=C/C(=O)OCC(=O)c2ccc[nH]2)cc1
-1.6,0.66,5.5,2,-4.0,i,-7,O=c1[nH]c(N2CCCCC2)nc2ncn(Cc3ccccc3)c12
-0.7,0.64,-19,-9,-1.6,i,11,O=C(c1cc(-c2cccc3ccccc23)nc2ccccc12)N1CCN(CCO)CC1
0.9,0.69,-0.2,-8,1.9,i,2,O=C(CCc1c[nH]c2ccccc12)N1CCN(c2ccc(O)cc2)CC1
7.0,0.59,4.3,-8,1.4,·,39,COc1cc(CNCCCN2CCOCC2)cc(Br)c1OCc1ccc(Cl)cc1
0.0,0.71,0.4,0,-2.8,i,-6,O=C(CSc1ccccc1C(=O)O)NC12CC3CC(CC(C3)C1)C2
-3.3,0.72,-2.4,-6,3.3,·,-4,COc1ccc(CC(=O)NC(C)C2COc3ccccc3O2)cc1OC (stereo unspecified)
0.2,0.68,-1.7,-3,-0.5,·,-7,CC1CCN(S(=O)(=O)c2ccc3c(c2)c(=O)c(C(=O)NCc2cccs2)cn3C)CC1
1.8,0.69,8.8,0,2.9,·,-7,CN1CCN(c2ccc([N+](=O)[O-])cc2C(=O)c2ccc(Br)cc2)CC1
8.5,0.66,-0.1,1,2.3,·,-1,O=C1c2ccccc2C(=O)C1c1nccc2ccccc12
-2.9,0.73,0.3,-9,3.7,·,3,CCOC(=O)Cn1c(N2CCOCC2)nc2c1c(=O)[nH]c(=O)n2C
0.2,0.73,3.9,·,·,i,10,CCCOC(=O)CSC1=C(C#N)C(c2ccccc2Cl)CC(=O)N1 (stereo unspecified)
-0.8,0.71,4.1,0,0.0,i,4,CC1CCCC(NC(=O)COC(=O)COc2ccc(Br)cc2)C1C (stereo unspecified)
-4.6,0.62,7.5,-19,-4.6,·,8,CCc1cccc2sc(N3CCN(C(=O)c4ccc([N+](=O)[O-])o4)CC3)nc12
-2.8,0.6,3.4,-7,0.8,i,6,O=C(Nc1ccc([N+](=O)[O-])cc1)Nc1ccc2c(c1)OCCO2
-2.6,0.69,4.2,0,-1.0,i,4,COC(=O)c1ccc(C)c(NC(=O)CCc2ccc(OC)cc2)c1
-2.4,0.7,2.4,·,1.6,·,2,Cc1[nH]ccc(=O)c1OCc1ccc(Cl)cc1
-5.0,0.76,4.7,-1,0.1,·,-8,CC(C)C(CCNC(=O)CN1C(=O)c2ccccc2C1=O)c1ccco1 (stereo unspecified)
-1.3,0.67,3.4,5,2.3,·,-3,Cc1ccccc1NC1(C#N)C(=O)Nc2ccccc21 (stereo unspecified)
11,0.72,3.1,-5,-0.3,i,-2,CCOC(=O)C1CCN(C(=O)Cn2nc(C)n3cccc3c2=O)CC1
2.9,0.69,4.0,0,2.1,i,-1,O=C(COC(=O)Cc1ccccc1F)Nc1cccc(S(=O)(=O)NC2=NCCCCC2)c1
3.2,0.67,-0.1,-7,2.0,i,0,COc1cccc(NC(=O)CCCn2nc(C)c3c(C)n(-c4ccccc4)nc3c2=O)c1
2.2,0.69,2.1,-9,0.8,·,2,CS(=O)(=O)NCCCNc1c(Cl)cccc1[N+](=O)[O-]
-0.3,0.65,-8.3,·,-0.5,·,5,CC(C)OP(=O)(OC(C)C)C(Nc1cccc(C(=O)O)c1)c1ccccc1 (stereo unspecified)
-0.6,0.55,2.2,6,-5.0,i,-12,S=C(NCc1cccnc1)Nc1ccc(Oc2ccc(Cl)cc2)cc1
0.8,0.71,11,·,0.0,i,-18,O=C1/C(=C/c2ccco2)SC(=S)N1CCC(=O)N1CCCCC1CCO (stereo unspecified)

An excerpt from above in order of number of heavy atoms, smallest number first.
HNF4A DNA FP,E coli growth,UCH37 DUB inh,ALR H2O2 inh,LANA-H2A inh,FGF22 binding,Beta2AR agonist,mol
-3.4,0.62,5.2,-13,-1.2,i,-3,C=CCc1cc(Cl)ccc1OCCCn1ccnc1
-1.3,0.67,3.4,5,2.3,·,-3,Cc1ccccc1NC1(C#N)C(=O)Nc2ccccc21 (stereo unspecified)
1.8,0.66,-0.4,·,·,i,-5,CN(C)c1ccc(CNn2cnnc2SCC(=O)NC(C)(C)C)cc1

Not all compounds are listed; count on the stated rates, not on these rows.
